SmPrx2 inh: Schistosoma mansoni Prx2 inhibition. S. mansoni Prx2 activity coupled to TGR/GSH (TGR is thioredoxin glutathione reductase), NADPH fluorescence loss, qHTS; some inactives read as strong as hits. Potency, µM. actives 0.07% (n = 65,000); active means full or partial inhibition curve with a strong effect at the top dose; inconclusive means weaker partial or single-point curve; inactive means no accepted curve; also: series up to 57 µM; many of its hits are not listed in these tables
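Prx2 activity was followed as the loss of NADPH fluorescence (ex 365/em 450 nm), read every 30 sec for 8 min after H2O2 start. The enzyme mix (50 nM Prx2, 25 nM TGR, GSH, NADPH; pH 7.4 phosphate buffer) was incubated with compound for 15 min at room temperature first.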
LT uptake inh: inhibitors of anthrax lethal toxin internalization. Cells, anthrax lethal toxin internalization, FRET ratio (460/530). Potency, µM (doses to about 40 µM), for inactives: at the highest dose activity change, negative = inhibition, actives largely listed as inhibitors. actives 0.67% (n = 70,000). AID 912; active = well fitted falling ratio curve with the 530 nm signal flat; inconclusive = other ratio curves, or a change in one channel alone; inactive = flat curves in the ratio and both channels; the % refers to the ratio; also: % is scaled to controls: 0 for no effect and ±100 for the full control effect; nearly all actives have a fitted effect of over 50% in size; tested in ME-180 cells; beta-lactamase reporter
Active calls of the source: *; ? = inconclusive; · = no result given; & = joins results of further samples; [ ] = dose if it differs, or a comment. Potency is read from the fitted curve at half-maximal effect. Only part of the results is shown. The share of hits here may be higher or lower than overall.

The line under a structure holds: LT uptake inh | SmPrx2 inh
Cc1c(C(=O)NCCCN2CCOCC2)sc2nc(-c3ccccc3)cn12
    -14% | >57
Cc1nnc(SCC(=O)c2cc(C)n(-c3ccc4c(c3)OCO4)c2C)s1
    ? | >57
CS(=O)(=O)N1CCC(C(=O)Nc2ccc(OCc3ccccc3)cc2)CC1
    -2% | >57
Cc1ccc(CS(=O)(=O)CCC(=O)NCCCOC(C)C)cc1
    -1% | >57
O=C(O)c1cc(=O)c2c(OCC(O)COc3cccc4oc(C(=O)O)cc(=O)c34)cccc2o1
    2%[3.58 µM] | >57
COc1ccc(NS(=O)(=O)c2cc(C)ccc2OC)cc1OC
    10% | >57
CO[C@@H]1COC(=O)[C@H](CCSC)NC(=O)C/C=C\[C@@H](C)COC(=O)[C@@H]2CCCN2C(=O)C/C=C\[C@H]1C
    -5%[8 µM] | ·
Cc1ccc2cc(CN(CCN3CCOCC3)C(=O)NCc3ccccc3)c(=O)[nH]c2c1C
    8% | >57
C=CCn1c(Cc2csc(N)n2)nnc1SCc1ccc(C(=O)OC)cc1
    3% | >57
COC(=O)CC(=O)CSc1nc2c(cc1C#N)CCC2
    ? | >57

Three entries from above, reformatted.
| mol | LT uptake inh | SmPrx2 inh |
| --- | --- | --- |
| Cc1nnc(SCC(=O)c2cc(C)n(-c3ccc4c(c3)OCO4)c2C)s1 | ? | >57 |
| Cc1ccc(CS(=O)(=O)CCC(=O)NCCCOC(C)C)cc1 | -1% | >57 |
| C=CCn1c(Cc2csc(N)n2)nnc1SCc1ccc(C(=O)OC)cc1 | 3% | >57 |

Remaining list, next part:
The line under a structure holds: LT uptake inh | SmPrx2 inh
Fc1ccc(NC2=NCCS2)cc1Cl
    -1% | >57
COc1ccc(-c2csc3nc(C)n(-n4cccc4)c(=O)c23)cc1
    -5% | >57
O=S1(=O)CC(N2CCCCC2)C(N2CCCCC2)C1 (centres undefined)
    -11% | >57
COC(=O)c1c(C)ccc2c(O)c3c(cc12)C(=O)c1c2c(cc(O)c1C3=O)[C@@]1(C)O[C@@](C)(O2)[C@@H](O)[C@H](N(C)C)[C@H]1O
    10%[8 µM] | >57
CN1CCN(C(=O)c2ccccc2N(Cc2ccccc2)S(C)(=O)=O)CC1
    -21% | >57
C=CCOc1c(Br)cc(CNn2nnnc2N)cc1OCC
    -9% | >57
CCN(CC)CCNC(=O)c1ccc2c(=O)n(CCc3ccccc3)c(=O)[nH]c2c1
    ? | >57
Clc1ccc2nc(N3CCN(c4ccccc4)CC3)sc2c1
    -9% | >57
COc1ccccc1C1/C(=C(/O)c2ccccc2)C(=O)C(=O)N1CCO (centres undefined)
    9% | >57
COc1cc(C2C3=C(CC(C)(C)CC3=O)N(C)C(=O)N2C)cc(OC)c1OC (centres undefined)
    ? | >57
COc1ccc(C2CCCN2C(=O)Nc2cccc(C(C)=O)c2)cc1OC (centres undefined)
    -7% | >57
Cc1ccc(S(=O)(=O)N[C@H]2COC(=O)[C@H](C)COC(=O)[C@H](C)NC(=O)C/C=C\[C@H]2C)cc1
    4%[8 µM] | ·
Cn1c(SCC(=O)Nc2nccs2)nnc1C12CC3CC(CC(C3)C1)C2
    7% | >57
Cc1c(C(=O)N2CCN(c3ccccn3)CC2)sc2ncnc(N3CCN(c4ccccc4)CC3)c12
    7% | >57
O=C(NCC(=O)N(CCN1CCOCC1)C(C(=O)NC1CCCC1)c1cccnc1)c1cccs1 (centres undefined)
    -1% | >57
O=C(Cc1ccc(Cl)cc1)NCC(=O)N1CCCC1
    24% | >57
COc1cc(C(=O)Nc2cc(C)c(OCC(=O)N3CCOCC3)c(C)c2)cc(OC)c1OC
    1% | >57
CCOCCCNC(=O)C1CCC(CNS(=O)(=O)c2cccc3nsnc23)CC1 (centres undefined)
    3% | >57
CCN1CCN(C(c2cccs2)C(C)NC(=O)c2ccccc2OC)CC1 (centres undefined)
    4% | >57
Cc1c(Br)c(C(F)(F)F)nn1CC(=O)NCC1CCCO1 (centres undefined)
    -11% | ·
Cc1csc(NC(=O)CSc2nc(C(C)C)nc3c2c(=O)n(C)c(=O)n3C)n1
    -18% | >57
CC1CCN(S(=O)(=O)c2ccc(F)c(C(=O)O)c2)CC1
    -8% | >57
COc1ccc(NC(=O)c2cc3c(=O)n(C)c4ccccc4c3n2C)cc1OC
    16% | >57
COc1ccccc1N1CCN(C(=O)c2cc(-c3ccc(Cl)cc3)on2)CC1
    -6% | >57
COc1ccc(OC)c(NC=C2C(=O)OC3(CCCCC3)OC2=O)c1
    ? | >57
CCC(O)c1cc2c(cc1NC(=O)c1cccs1)OCCO2 (centres undefined)
    1% | >57
CCn1ccnc1C[C@@H]1COc2ccccc2O1
    -13%&7% | >57&>57
CC/C(O)=C(/C#N)c1nnc2n1CCCCC2
    -1% | >57
Cc1ccc(S(=O)(=O)NCc2cccc([N+](=O)[O-])c2)cc1
    ? | >57
O=C(Nc1cc(=O)c2ccccc2o1)N1CCOCC1
    -6% | ·
COc1ccc(S(=O)(=O)Cc2ccc(C(=O)N3CCC4(CC3)OCCO4)o2)cc1
    ? | >57
CCOC(=O)C1CCCN(S(=O)(=O)c2ccc(OC)c3ccccc23)C1 (centres undefined)
    -22% | >57
Cc1nc(NCc2ccco2)c2c3c(sc2n1)CCC3
    -12% | >57
Nn1cnnc1SC1CCCCC1NS(=O)(=O)c1ccccc1 (centres undefined)
    · | >57
CCCN1C2=NCCN2c2cc(C)c(C)cc21
    -3% | >57
Cc1noc(/C=C/N(C)C)c1S(=O)(=O)N1CCN(c2ccccc2)CC1
    -10% | >57
Cc1cccc(Cn2c(C(C)O)nc3ccccc32)c1 (centres undefined)
    2% | >57
CCC(=O)N1CCc2cc(S(=O)(=O)NCCC(=O)N3CCN(Cc4ccccc4)CC3)ccc21
    ? | >57
Cc1cc(C)nc(SCCn2c(N3CCC(C)CC3)nc3c2c(=O)n(C)c(=O)n3C)n1
    1% | >57
CC(C)NC(=O)N1CCC2(CC1)CCN(C(=O)c1ccncc1)CC2
    ? | >57
CCCc1cc(=O)n2[nH]c(-c3ccc(Br)cc3)cc2n1
    11% | >57
COc1ccc(CN2CCN(S(=O)(=O)c3ccccc3)CC2)c(OC)c1
    6% | >57
O=C(CN1CCN(S(=O)(=O)c2ccccc2)CC1)Nc1cccc(C(F)(F)F)c1
    -28% | >57
OC[C@@H](O)CNc1ncnc2ccccc12
    -3%[8 µM] | >57
COCCSc1ccccc1C(=O)Nc1ccncc1
    -2% | >57
Cc1cc2c(c(=O)n1CCc1ccccc1)C(C(C)C)C(C#N)=C(N)O2 (centres undefined)
    -11% | >57
C#C[C@@]1(O)CC[C@@H]2[C@@H]3CCC4=CC(=O)CC[C@@]4(C)[C@H]3CC[C@]21C
    7%[3.58 µM] | >57
CCOCC(=O)Nc1cc(-c2cn3cccnc3n2)ccc1C
    -24% | >57
O=c1cc(CSc2nnc(COc3ccc(Cl)cc3)o2)c2ccccc2[nH]1
    -16% | >57
Cc1ccc(-n2c(O)cnc2Nc2nc(C)cc(C)n2)cc1
    9% | >57

(list continues)
The line under a structure holds: LT uptake inh | SmPrx2 inh
CC(C)(CO[C@H]1C[C@H]2CC[C@@]1(C)C2(C)C)[N+](=O)[O-]
    ? | >57
Cc1cccc(NC(=O)CN(C)S(=O)(=O)c2cccc3cccnc23)c1
    ? | >57
COC(=O)c1ccc(C(/C=C/[C@@H](C)C(=O)N[C@H](C)CO)NC(=O)OCc2ccccc2)cc1 (some centres undefined)
    19% | ·
O=C(O)/C(=C\c1ccc(O)cc1)c1cccc2ccccc12
    9%[8 µM] | >11
O=C1CC2CS(=O)(=O)CC2N1c1ccc(Oc2ccccc2)cc1 (centres undefined)
    -5% | >57
CCOC(=O)C1=C(C)N=C2SC(C)C(=O)N2C1c1ccc(OCC)c(OCC)c1 (centres undefined)
    -22% | >57
COc1cccc(-n2c(Cc3cc(=O)[nH]c(=O)[nH]3)nnc2SCC(=O)N2CCCCC2)c1
    -2% | >57
Cc1ccc(-n2c(SCC(N)=O)nnc2-c2cccnc2)c(C)c1
    0% | >57
O=S(=O)(c1ccccc1)c1nc(-c2ccco2)oc1NCc1cccnc1
    -9% | >57
COc1ccc2[nH]c(=O)c(CN(Cc3nnnn3Cc3ccc(F)cc3)CC3CCCO3)cc2c1 (centres undefined)
    6% | >57
CCOc1ccc(-c2nnc(-c3ccncc3)o2)cc1
    4% | >57
Oc1cc(Cl)cc(Cl)c1Cl
    ? | ·
Cc1ccc(C)c(N(CC(=O)NCc2ccco2)C(=O)CCC(=O)Nc2ccccn2)c1
    ? | >57
O=C(O)C1C2C=CC(C2)C1C(=O)NCCc1cccc(Cl)c1 (centres undefined)
    -11% | ·
CCCSc1nnc(-c2ccccc2N)c(=O)[nH]1
    -3% | ·
CC(C)(C)OC(=O)N1CCC(c2c(C(=O)O)cnn2-c2ccc(Cl)cc2)CC1
    ? | >57
CCOc1ccc(C(=O)C2CCN(C(=O)c3ccccc3C(=O)O)CC2)cc1
    1% | >57
Cc1ccc(NC(=O)C2CC(=O)NC(Nc3cccc(C)c3)=N2)cc1 (centres undefined)
    -9% | >57
CCN1CCN(S(=O)(=O)c2ccc(S(=O)(=O)NCC3CCCO3)cc2)CC1 (centres undefined)
    -19% | >57
O=C1CC(/C=C/c2ccco2)=Nc2ccccc2N1
    ? | >57
COCCCNC(=O)C1CC(=O)N(CCc2ccc(OC)c(OC)c2)C1 (centres undefined)
    9% | >57
O=C(NCCc1nc2ccccc2[nH]1)c1ccco1
    -6% | >57
COc1ccc(OC)c(S(=O)(=O)N2CCC(C(=O)NCCc3ccc(OC)c(OC)c3)CC2)c1
    8% | >57
CCC(=O)NCC(c1cccs1)N1CCOCC1 (centres undefined)
    -6% | >57
O=C(Nc1ccc(Cl)c(C(F)(F)F)c1)c1ccco1
    ? | >57
COCc1nnc(N)s1
    · | >57
Cc1ccsc1C(=O)OCC(=O)N1CC(=O)Nc2ccccc21
    -6% | >57
COc1cc(OC)cc(OCC(O)Cn2ccnc2)c1 (centres undefined)
    -5% | >57
CC(C)(C)c1ccc(S(=O)(=O)/C=C\C#N)cc1
    ? | >57&>57
Cc1cc(NS(=O)(=O)c2ccc(NC(=O)COc3ccccc3C(C)C)cc2)no1
    -15% | >57
C=C(C)CNCCN
    ? | >57
Cc1csc(NC(=O)NC2(C(F)(F)F)Oc3ccccc3O2)n1
    -5% | >57
O=C(CN1CCc2ccccc2C1)N1CCN(S(=O)(=O)c2ccccc2)CC1
    12% | >57
O=C(Cn1nnc(-c2ccccc2-n2cnnn2)n1)N1CCCCC1
    4% | >57
O=C(CCN1C(=O)C2C3C=CC(C3)C2C1=O)Nc1ccccc1F (centres undefined)
    2% | >57
COc1cccc(-n2nnc3c(=O)n(Cc4ccccc4F)cnc32)c1
    ? | >57
O=C(CSc1nnc(Cn2nnc3ccccc32)o1)N(Cc1ccc(F)cc1)c1ccccc1
    -15% | >57
COC(=O)N1CCC[C@@]2(CCN(c3ccncc3)C2)C1
    1% | >57
Nc1nncn1C(=O)CCCOc1ccc(Cl)cc1Cl
    ? | >57
COCCNc1nc(-n2nc(C)cc2C)nc2sc3c(c12)CCCC3
    0% | >57

Whole records, looked up by structure.
O=C(NCC(=O)N(CCN1CCOCC1)C(C(=O)NC1CCCC1)c1cccnc1)c1cccs1 (centres undefined) in the list: LT uptake inh = -1%; SmPrx2 inh = >57
CC/C(O)=C(/C#N)c1nnc2n1CCCCC2 in the list: LT uptake inh = -1%; SmPrx2 inh = >57

(listing goes on)
The line under a structure holds: LT uptake inh | SmPrx2 inh
COc1ccccc1C1NC(=O)CS1 (centres undefined)
    -5% | ·
COc1cc2c(cc1OC)C(C)N(C(=O)CCN1C(=O)C3C4C=CC(C4)C3C1=O)CC2 (centres undefined)
    -4% | >57
CCOC(=O)N1CCC(N2CC34C=CC(O3)C(C(=O)Nc3ccc(F)cc3)C4C2=O)CC1 (centres undefined)
    -1% | >57
CCOC(=O)CCN1C(=O)[C@H]2[C@@H]3[C@H](O)[C@H](O)CC(=O)[C@H]3CC[C@H]2C1=O
    6%[8 µM] | ·
COc1ccccc1N1CCN(S(=O)(=O)c2ccccc2)CC1
    -11% | >57
CN(C)c1ccc(N=O)cc1
    ? | ·
CC(C)Cc1cc(C(=O)Nc2ccc3c(c2)OCO3)no1
    ? | >57
N#CC1=C(N)N(c2ccccc2)C2=C(C(=O)CCC2)C1c1cccs1 (centres undefined)
    6% | >57
Cc1ncc(CO)c2cc(S(=O)(=O)c3ccc(F)cc3)c(=O)oc12
    0% | 17*
CCCN1CCC(N2CCN(c3ccccc3OC)CC2)CC1
    -18% | >57
COC(=O)c1ccc2c(c1)S(=O)(=O)NC(=NCCCN1CCOCC1)S2
    1% | >57
COC(=O)c1ccc(C(=O)Nc2ccc(N)cc2N)cc1
    -11% | >57
COc1ccc(NC(=O)c2cccs2)cc1OC
    -1% | >57
COc1cc(-c2ccc(NC(=O)CN3CCCCC3)c(OC)c2)ccc1NC(=O)CN1CCCCC1
    2% | >57
CC(C)C(=O)Nc1ccccc1N1CCN(C(=O)c2ccccc2)CC1
    0% | >57
COC(=O)C1(CO)NC(c2cccs2)C2C(=O)N(c3ccccc3)C(=O)C21 (centres undefined)
    -7% | >57
